# CSC inhib = cancer stem cell inhibition. cancer stem cell-like cells viability, luminescence. inhibition, % at 7.5 µM. hit rate 1.1% among 300,000;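 active means mean at 75% or more and at least half the replicates too; inconclusive means mean and replicates disagree; tested in HMLE shEcad cells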;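 further: 0% = median of negative and 100% = median of positive control wells; the first replicate is given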
# eIF4H FP inh = inhibitors of RNA binding by human eIF4H | eIF4H fluorescence polarization binding assay | Q15056 | hit rate 0.94% among 290,000 | inhibition, % at 35 µM;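 active means 50% or more with normal probe brightness, or confirmed in later tests; inconclusive means above 50% with abnormal brightness, or retests that disagree; inactive means below 50% or failed in later tests; about a fifth of its hits are not listed in these tables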;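 further: calls also rest on retests at 20 µM and on dose response follow-up; 0% = protein and probe with vehicle and 100% = probe without protein; strong numbers were not always called active; many hits fall short of the cut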
# Env fusion inh = HIV envelope-mediated fusion inhibition | hit rate 1.1% among 360,000 | inhibition, % at 12.3 µM | HeLa-JRFL Env/CEM21 cell fusion, luciferase;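 active means mean replicate inhibition score of at least 50 and every replicate individually at or above 50; inconclusive means only one of the two criteria met; inactive means mean below 50 and not all replicates reaching 50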;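 further: 0% = plate neutral controls and 100% = maraviroc near 300 nM; one replicate is shown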
# Rce1 inhib = yeast Ras-converting enzyme inhibition; hit rate 0.27% among 290,000; yeast membranes, quenched prenylated peptide cleavage fluorescence; calls only;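 active means fall in fluorescence gain of 50% or more versus controls, with final raw signal at or below 3038400; inconclusive means same 50% fall but final raw signal above 3038400; inactive means fall in fluorescence gain under 50%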;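 further: plate controls were neutral control wells for no effect and wells lacking membranes for full effect; tested at 10 µM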
# Yeast UUG start = alters start codon recognition fidelity in yeast | activity score, % at 18.7 µM | hit rate 0.13% among 350,000 | S. cerevisiae UUG-firefly luciferase reporter, luminescence/redox ratio | AID 602363;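 active means replicate mean at a twofold rise or more, about +100% in these data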;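 further: firefly luciferase made from a UUG start codon reports start codon fidelity; reporter light over untreated wells divided by growth signal over untreated wells; some hits fall short of that in this replicate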
# PABP FP inh = blocks human PABP binding to poly(A) RNA | P11940 | fluorescence polarization | inhibition, % at 35 µM | hit rate 1% among 290,000;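 active means 50% or more with normal probe brightness, or confirmed in later tests; inconclusive means above 50% with abnormal brightness, or retests that disagree; inactive means below 50% or failed in later tests; about a fifth of its hits are not listed in these tables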;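 further: calls also rest on retests at 20 µM and on dose response follow-up; controls were probe without protein and protein plus probe with vehicle; some compounds called inactive have numbers as strong as hits; many hits fall short of the cut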
# Target sequence (P11940 whole entry, looked up): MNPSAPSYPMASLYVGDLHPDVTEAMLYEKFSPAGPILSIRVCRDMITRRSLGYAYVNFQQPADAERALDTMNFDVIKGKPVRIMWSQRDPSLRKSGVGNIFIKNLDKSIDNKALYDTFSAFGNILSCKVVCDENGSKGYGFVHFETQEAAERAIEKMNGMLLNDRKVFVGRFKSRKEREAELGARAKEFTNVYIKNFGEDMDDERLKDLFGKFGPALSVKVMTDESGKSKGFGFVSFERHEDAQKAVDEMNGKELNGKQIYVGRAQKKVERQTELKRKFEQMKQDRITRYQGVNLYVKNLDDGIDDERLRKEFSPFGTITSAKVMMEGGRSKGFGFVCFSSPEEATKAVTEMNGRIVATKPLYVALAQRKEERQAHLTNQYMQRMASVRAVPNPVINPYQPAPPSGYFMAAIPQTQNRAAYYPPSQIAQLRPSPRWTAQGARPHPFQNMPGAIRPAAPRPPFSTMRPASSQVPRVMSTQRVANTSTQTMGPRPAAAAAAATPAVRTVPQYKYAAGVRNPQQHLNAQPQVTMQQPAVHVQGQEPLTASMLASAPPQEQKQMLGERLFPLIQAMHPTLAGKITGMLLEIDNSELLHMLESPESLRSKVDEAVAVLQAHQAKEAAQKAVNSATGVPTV
# MT1-MMP act inh = inhibitors of human MT1-MMP activation; P50281; HT1080 RFP-PRO-GFP cells, GFP/RFP ratio fluorescence, overnight; percent of plate control window, DMSO zero; GFP/RFP ratio change, % at 20 µM; hit rate 0.061% among 360,000; AID 651647;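 active means GFP/RFP ratio change of at least 30% with cell ATP level not reduced by more than half and red fluorescence within 50% of control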; further: strong numbers were not always called active
#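 Test system: HT1080 cells expressing an RFP-PRO-GFP fluorescent reporter construct / Compound dosing: single-point 20 µM compound, 1% DMSO / Schedule: cells overnight before dosing, compound overnight, 37 °C, 5% CO2 / Evaluation: GFP/RFP fluorescence ratio / Control set: DMSO and RFP-L50D-GFP cell wells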
# eIF4H FP inh retest = second read-out of eIF4H FP inh, no call of its own (marks repeat the call); inhibition, %; compound at 20 µM; confirmation average;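 mean of two retest wells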
# PABP FP inh retest = also measured in PABP FP inh; calls as there; inhibition, %; compound at 20 µM; confirmation repeats;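 mean of two retest wells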
# MT1-MMP act inh RFP = recorded beside MT1-MMP act inh, whose call it bears; RFP signal change, %; measured here: RFP expression control read;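 0 = vehicle wells; hits needed this value within 50% of zero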
# * hit, by the source's call; i = inactive; u = inconclusive; x = not tested or not shown; & = joins results of further samples. This is a subset; the hit share may differ from the screen's.
SMILES,CSC inhib,eIF4H FP inh,Env fusion inh,Rce1 inhib,Yeast UUG start,PABP FP inh,MT1-MMP act inh,MT1-MMP act inh RFP,others
CCN(CC)S(=O)(=O)c1ccc(C(=O)Nc2ccc(Cc3ccncc3)cc2)cc1,7.5,-7.5,40.6,i,x,-13.1,-2.8,-28.8,
Cc1cc(C)c(Cn2c(=O)n(CCCC(=O)NCc3ccco3)c(=O)c3sccc32)c(C)c1,20.0,-6.1,-467.4,x,-18.2,-7.4,0.8,4.4,
C#CC[N+](C)(C)CCCCCCCCCC,-0.5,-7.7,1.1,i,-38.0,-11.9,-13.9,-11.4,
CCCCc1nnc(NC(=O)C(C)Sc2nc(C)cc(=O)[nH]2)s1 (configuration not stated),-2.5,-17.0,-30.6,i,x,-0.3,-5.4,-4.1,
CCCCn1nc(C(=O)N(C)Cc2nc3ccccc3c(=O)[nH]2)c2ccccc2c1=O,x,x,-4.2,x,-7.8,x,-1.8,4.0,
O=C(C[n+]1ccc2ccccc2c1)c1ccccc1,-6.3,-2.6,15.0,i,-4.7,-3.2,-0.3,5.2,
Nc1cc(N)nc(SCc2ccccc2Cl)n1,x,x,-0.3,x,-0.8,x,2.2,2.1,
CC(=O)OC[C@@H]1CN(Cc2ccccc2)C[C@H](n2cnc3c(NC(C)C)ncnc32)O1,x,x,4.2,x,-4.3,x,6.8,7.4,
CN(C)c1ccc(-c2cc([C@H]3[C@@H]4C=CCC[C@@]4(C)C(=O)N3Cc3ccccc3)ccc2F)cc1,103.7*,3.4,41.0,i,-10.8,0.7,-5.5,-7.9,
O=S1(=O)CC2N=C(N(Cc3c(F)cccc3Cl)c3ccccc3F)SC2C1 (configuration not stated),-4.7,-3.8,25.7,i,x,-8.0,-2.3,-3.8,
CCOC(=O)C1=NS(=O)(=O)NC(C)=C1,x,x,-1.3,x,-25.0,x,4.7,5.8,
CCN(CC)CCCNC(=O)C1c2cc(OC)c(OC)cc2C(=O)N(C)C1c1cccnc1 (configuration not stated),x,-5.8,5.4,i,-27.7,-2.2,1.7,3.3,
O=C(c1cnc(N2CCN(c3ccccn3)CC2)c2ccccc12)N1CCN(c2cccc(Cl)c2)CC1,44.6,-3.1,40.8,i,12.6,36.4,-8.8,-28.4,
Cc1ccc(Sc2c(C)nn(C(=O)C3CC3)c2C)cc1,-4.1,1.0,x,i,-13.3,-7.3,5.8,3.9,
CC(C)OCCCNCc1cccs1,-3.5,-3.7,x,i,-8.4,-6.3,6.2,4.6,
CC(C)NS(=O)(=O)c1ccc(CCC(=O)N2CCCC2)cc1,-6.8,-5.8,10.9,i,x,2.2,-3.4,-1.8,
CC(C)(C)NCC1(CO)SC(N)=NC1=O (configuration not stated),2.2,0.6,1.7,i,-2.1,3.5,0.8,0.4,
COc1ccc(CCNC(=O)c2cnc3ccccn3c2=O)cc1,x,0.1,32.0,i,-4.3,115.2,1.3,3.5,eIF4H FP inh retest=-1.7;PABP FP inh retest=3.8
CC(C)C#Cc1cnc2c(c1)C(=O)N([C@H](C)CO)C[C@@H](C)[C@H](CN(C)C(=O)Nc1ccccc1F)O2,x,x,-11.6,x,10.1&-1.4&-3.6,x,1.5,1.9,
COc1cc(NC(=O)C2CCCN(c3ncnc4c3nc3n4CCCCC3)C2)cc(OC)c1OC (configuration not stated),9.0,-5.0,-4.7,i,0.4,6.9,0.4,5.9,
COc1ccc(-c2ncnc(C(F)(F)F)c2-c2csc(C)n2)c(O)c1,-18.5,9.1,-15.8,i,x,-12.3,1.3,3.1,
COc1cccc(CNC(=O)CN2C(=O)CSc3ccc(S(=O)(=O)N4CCCC4)cc32)c1,x,-0.9,7.5,i,x,3.0,-3.3,0.1,
COc1cccc(CN2CCN(C(=O)c3cccc4ccccc34)CC2)c1,-14.2,-9.9,15.5,i,0.6,-9.9,-2.1,2.0,
CC1=NN(c2ccccc2)C(=O)/C1=C\C=C1/N(C)c2ccccc2C1(C)C,46.4,u,12.5,x,x,2.1,1.4,-2.1,
Cc1ccn2c(=O)nc(SCC(=O)N3CCCC3)nc2c1,1.6,x,-13.8,i,1.1,x,4.2,8.3,
Cc1cccc(Cn2nc(C)cc2NC(=O)CCCn2ccc([N+](=O)[O-])n2)c1,-6.9,-4.6,-11.9,i,x,-0.2,0.6,-1.7,
COc1ccc(OC)c(-n2nnnc2SCC(=O)NCc2ccc3c(c2)OCO3)c1,-4.7,7.1,x,i,-8.4,7.8,-2.1,-2.7,
COc1ccc(C(O)Cn2c(=N)n(CCCN(C)C)c3ccccc32)cc1 (configuration not stated),1.1,12.6,x,i,-10.2,27.2,-3.5,6.5,
CCCC(=O)Nc1nnc(SCC)s1,-11.1,10.8,-18.7,i,x,3.8,5.1,2.0,
Cn1ncc(C#N)c1NC(=O)C1CC(c2ccccc2Cl)=NO1 (configuration not stated),-10.1,-11.9,9.0,i,x,3.3,x,x,
CC(=O)Nc1ccc(-c2ccnc3c2CC(C)(C(=O)NCc2ccc(N4CCN(C)CC4)cc2)O3)cc1 (configuration not stated),x,x,-14.5,x,-11.1,x,-3.2,2.7,
COc1ccc(NC(=O)CN2C(=O)C(C)SC(C)C2=O)c(OC)c1 (configuration not stated),-1.5,-2.6,-20.3,i,x,0.2,1.2,3.6,
O=C(CCCC(=O)n1cnc2ccccc21)n1cnc2ccccc21,x,16.6,x,i,-21.3,1.3,0.1,5.9,
O=C1Cc2ccccc2C(=O)N1Cc1ccccc1,-1.4,4.6,x,i,-82.2,6.4,-1.3,9.4,
COc1ccc(Cl)cc1NC(=O)C(C)Sc1nnc(C2CC2)n1C1CC1 (configuration not stated),-1.1,x,7.8,x,-13.3,x,1.8,-4.0,
C=CCNC(=O)c1onc(CSc2ccccc2)c1C(=O)NCC=C,-1.3,x,13.5,i,-16.3,x,-2.1,0.8,
CN1CCN(c2ccc(CNS(=O)(=O)c3ccccc3)cc2)CC1,33.5,-4.9,-175.9,i,-5.4,-4.6,-5.9,-3.4,
Nc1ccc(Br)cc1Br,11.4,-0.8,1.0,i,x,1.8,1.1,0.3,
Cc1ccc(Cl)c(OCC(=O)NCc2ccco2)c1,-2.3,11.6,-61.1,i,x,12.0,-5.9,-1.9,
COc1cc(C#Cc2c(-c3cncn3C)n(C)c3ccc(Br)cc23)cc(OC)c1,x,x,20.7,x,-17.0,x,-11.5,-11.4,
COc1ccc(N2C(=O)C(CC(N)=O)N(NC(=O)CCc3ccccc3)C2=O)cc1 (configuration not stated),-20.8,12.8,-7.5,i,-19.0,21.5,-2.8,-1.1,
CCCOc1ccc(-c2csc(N)n2)cc1[N+](=O)[O-],-3.8,-2.6,-114.9,i,x,-0.8,3.1,-6.1,
COc1ccc(C2CC(=O)C(C=NCCO)=C(O)C2)cc1OC (configuration not stated),-18.9,14.0,-1.2,i,-7.7,15.8,-1.4,5.9,
c1ccc2c(c1)c1c3n2CCNC3CCC1 (configuration not stated),x,7.3,x,i,-16.5,7.9,-1.1,-0.6,
C(=N\c1nccs1)/c1cccnc1,-10.8,-5.5,x,i,-14.8,-5.4,1.0,-1.1,
COc1cccc(CCC(=O)N2CCC(n3nccc3NC(=O)C3CCOC3)CC2)c1 (configuration not stated),10.4,-2.5,x,i,-5.1,9.4,-4.7,-0.4,
COc1ccc(-n2c(CN3CCN(c4ccccn4)CC3)nc3ccc([N+](=O)[O-])cc3c2=O)c(OC)c1,-18.2,3.8,7.9,i,10.7,13.3,-0.8,-0.3,
N#Cc1c(N)nc(SCC(=O)C23CC4CC(CC(C4)C2)C3)c(C#N)c1-c1ccc(Cl)cc1,4.6,7.4,x,i,x,-9.2,4.4,8.6,
C[C@@H]1CN([C@@H](C)CO)C(=O)c2cc(Br)cnc2O[C@@H]1CN(C)S(C)(=O)=O,x,x,1.0,x,26.5,x,1.8,4.6,
CSc1ncccc1C(=O)OCC(=O)Nc1ccc2c(c1)CCC2,-19.3,x,3.7,x,-25.4,x,-2.8,3.1,
COc1ccc(C(=O)CCc2ccccc2)cc1,0.1,-2.4,-36.5,i,-14.8,-0.5,0.5,2.0,
Cc1cc(C)n(-c2nc3c(c(=O)n(C)c(=O)n3C)n2CCO)n1,-4.2,-9.4,-3.2,i,x,18.7,3.6,4.1,
COc1cc(C(=O)N2CCN(c3ccccc3OC)CC2)c([N+](=O)[O-])cc1OC,-4.5,-16.6,14.8,i,-10.8,-1.6,-0.6,2.9,
CCOC(=O)CNC(=O)c1cn(CC(C)C)c(=O)c2cc(OC)c(OC)cc12,-3.1,2.6,-19.3,i,-15.3,3.0,-3.1,-1.5,
c1cncc(-c2nc3ccccc3o2)c1,10.7,51.6,x,i,4.9,18.6*,-4.5,2.5,eIF4H FP inh retest=47.1;PABP FP inh retest=76.1*
Cc1ccc(CNC(=O)c2cc(=O)c3cc(C)ccc3o2)cc1,-7.6,-20.1,-6.7,i,-15.9,-12.7,-2.7,-1.1,
Cc1c(NC(=O)C(C)Sc2ccc3ccccc3n2)c(=O)n(-c2ccccc2)n1C (configuration not stated),-3.6,6.3,x,i,19.4,2.6,13.7,-2.5,
CC(=O)C[C@H]1c2ccccc2S(=O)(=O)N1C1CCCCC1,x,x,30.4,i,-15.3,x,-0.6,0.8,
Cc1cccc(NC(=O)CN(C)C(C)C(=O)Nc2ccc(S(=O)(=O)N3CCCC3)cc2)c1C (configuration not stated),x,x,0.5,x,-2.6,x,3.0,-3.5,
CN(Cc1cn(Cc2ccccc2)nc1-c1ccc2c(c1)OCO2)Cc1nccn1C,-8.0,-2.4,6.5,i,x,-1.9,-4.5,-1.9,
# Other structures follow.
SMILES,CSC inhib,eIF4H FP inh,Env fusion inh,Rce1 inhib,Yeast UUG start,PABP FP inh,MT1-MMP act inh,MT1-MMP act inh RFP,others
Cc1nn(C)c(C)c1CN(C)C(=O)C1c2ccccc2Oc2ccccc21,1.3,u,0.0,x,x,1.9,-1.4,2.1,
Cc1nn2c(=O)c(NC(=O)c3ccc(Cl)cc3)cnc2s1,-1.0,8.0,2.5,i,-3.6,11.4,0.5,-4.6,
N#CCC(=O)Nc1ccc(C(=O)Nc2cccnc2)cc1,3.3,1.2,9.0,x,-9.8,-7.0,3.7,4.0,
Oc1ccc2oc3c(c2c1/C=N/n1cnnc1)CCCC3,35.4,83.3,-312.4,i,-12.2,34.3,-18.0,-3.2,eIF4H FP inh retest=15.6;PABP FP inh retest=15.8
NS(=O)(=O)c1cccc(NC(=O)CSc2nc3ccccc3c(=O)n2CC2CCCO2)c1 (configuration not stated),x,x,4.5,x,-10.7,x,1.2,1.0,
Cc1cc(F)ccc1S(=O)(=O)Nc1ccc(O)c(Sc2ncn[nH]2)c1,-7.2,5.2,-1.8,i,1.6,5.8,-1.2,-0.7,
COc1ccc(NC(=S)N2CCN(c3ncccn3)CC2)cc1,3.5,-6.2,-6.9,i,x,-3.1,0.0,2.8,
Cc1cc(C)nc(SCC(=O)Nc2ncc3c(n2)CC(C)(C)CC3=O)n1,-10.7,3.9,-131.4,x,-24.7,-7.2,9.3,-0.5,
Cn1c(=O)oc2cc(S(=O)(=O)NCc3ccncc3)ccc21,-15.1,71.5*,100.1*,i,-22.3,67.4*,-18.7,-9.3,
Cc1cccc(N2C(=O)/C(=C/c3ccccn3)SC2=S)c1,-8.9,-13.8,-3.4,i,-13.3,7.1,4.3,2.4,
CCN(Cc1ccncc1)C(=O)c1ccco1,12.4,5.0,-18.0,i,-3.0,11.9,1.2,5.4,

# Screening data: PubChem, several laboratories
